2A firefly = FMDV 2A StopGo reporter, firefly signal; 120,000 tested, 0.23% active; Potency, µM (doses to about 57.5 µM), for the others: at the highest dose signal change, negative = less light; HEK cells with a luciferase reporter of 2A StopGo recoding; AID 1745856; active = well fitted falling curve with a large enough effect; inconclusive = small, poorly fitted or top-dose-only effect; inactive = no such curve, though single readings can be large or run the other way; also: nearly all actives have a fitted effect of over 60% in size; overnight with compound
2A Renilla = lowers the Renilla signal of an FMDV 2A StopGo reporter; HEK cells with a luciferase reporter of 2A StopGo recoding; Potency, µM (highest dose often 57.5 µM), inactives show top-dose signal change, negative = less light; 120,000 tested, 0.32% active; AID 1745857; active means well fitted falling curve with a large enough effect; inconclusive means small, poorly fitted or top-dose-only effect; inactive means no such curve, though single readings can be large or run the other way; also: nearly all actives have a fitted effect of over 55% in size; overnight with compound
* hit, by the source's call; ? = inconclusive; & = joins results of further samples; [ ] = dose if it differs, or a comment. % is scaled to controls: 0 for no effect and ±100 for the full control effect; potency is read from the fitted curve at half-maximal effect.

Order of values: 2A firefly, 2A Renilla
- N#Cc1ccc(NC(=O)Cc2ccc3c(c2)CCC3)cc1Cl
 : 9%, 259%[activator]
- Cc1ccccc1CNC(=O)Cn1ccc2cc(S(=O)(=O)N3CCCCC3)ccc21
 : 16%, 56%[activator]
- O=c1[nH]c(N2CCOCC2)nc2nccc(-c3ccc(OCc4ccccc4)cc3)c12
 : 101%[activator], -4%
- O=C(COC(=O)CCC(=O)c1ccc(Cl)cc1)NC1CCCCCCC1
 : 3%, -4%
- COc1ccc(NC(=O)CSc2nc3ccsc3c(=O)n2-c2ccccc2)cc1
 : -1%, 12%
- COc1cc(CN(C(=O)COc2ccccc2)c2ccccn2)cc(OC)c1OC
 : 7%&-11%, 16%&-1%
- CCOc1ccc(Cl)cc1CNCc1cccnc1
 : -6%, -12%
- O=C(Nc1nnc(S(=O)(=O)N2CCc3ccccc32)s1)c1ccccc1
 : -15%, 6%
- COc1ccc2oc(-c3ccccc3)c(C(=O)Nc3ccc(N(C)C(C)=O)cc3)c2c1
 : 19%, 109%[activator]
- COc1ccc(OC)c2sc(N(Cc3cccnc3)C(C)=O)nc12
 : 2%, -6%
- COc1ccc(C2C(C#N)=C(N)Oc3cc(C)n(Cc4ccc5c(c4)OCO5)c(=O)c32)cc1 (centres undefined)
 : -5%, -8%
- Cc1ccc(NC(=O)c2ccccc2NCC(=O)N2CC(=O)Nc3ccccc32)cc1
 : 155%[activator], 16%
- COc1ccc2[nH]cc(CCNC(=O)Nc3cc(C)cc(C)c3)c2c1
 : 3%, 16%
- CC(C)(C)c1ccc(C(CC(=O)O)NC(=O)c2ccc(-c3ccccc3)cc2)cc1 (centres undefined)
 : 14%, -4%
- CCOc1ccc(-c2cc(NC(=O)c3ccc(C)cc3)c(C(=O)OC)s2)cc1
 : -12%, -15%
- Cc1ccc2c(c1)C(c1ccc(F)cc1)N(C(=O)c1ccc(OC(C)C)cc1)CC(=O)N2 (centres undefined)
 : -1%, 34%[activator]
- C#CCNC1CCCCC1C(C)=O (centres undefined)
 : -8%, -1%
- CC(=O)NC1(C)CCCCC1
 : 2%, -6%
- COc1cc(NC(=O)c2cc(C3CC3)nc3c2c(C)nn3-c2ccccc2)cc(OC)c1
 : -11%, -11%
- COc1ccccc1C(=O)OCc1cc(=O)n2nc(C(C)C)sc2n1
 : 78%[activator], -10%
- CCOC(=O)c1c(S(=O)(=O)N2CCC(C(=O)Nc3ccc(C)cc3C)CC2)c(C)n(C)c1C
 : -22%, -8%
- COc1ccc(C2C(C#N)=C(N)Oc3n[nH]c(C)c32)c(OCc2ccccc2Cl)c1 (centres undefined)
 : 136%[activator], 2%
- CN(C)c1ccc(SSc2ccc(N(C)C)cc2)cc1
 : 5%, -16%
- Cc1nc(-c2cccc(S(=O)(=O)N3CCC(C(=O)NCc4ccc5c(c4)OCO5)CC3)c2)no1
 : 8%, 12%
- CC(NC(=O)NCC1CCCC1)C(=O)NC(C)(C)C (centres undefined)
 : 15%, 14%
- O=S(=O)(c1ccc(-c2csc(Nc3ccc(F)cc3)n2)cc1)N1CCOCC1
 : -18%, -17%
- CCc1cccc(C)c1NS(=O)(=O)c1ccc2c(c1)NC(=O)C(C)C(=O)N2 (centres undefined)
 : -21%, -12%
- CC(=O)c1ccc(NS(=O)(=O)c2ccc(-n3cccn3)cc2)cc1
 : 29%, 331%[activator]
- Cc1ccc(NCc2cccn2-c2nnc(N3CCC(C(=O)NCc4ccc(F)cc4)CC3)s2)cc1
 : -15%, 18%
- COc1ccc(CNC(=O)C(=O)NCC(c2cccs2)S(=O)(=O)c2ccc(F)cc2)cc1 (centres undefined)
 : -11%, -9%

Record cards (already shown). Values in the order: 2A firefly, 2A Renilla
CN(C)c1ccc(SSc2ccc(N(C)C)cc2)cc1 is listed with 5%, -16%
O=S(=O)(c1ccc(-c2csc(Nc3ccc(F)cc3)n2)cc1)N1CCOCC1 is listed with -18%, -17%

Molecules shown so far that have two or more sulfur atoms:
Order of values: 2A firefly, 2A Renilla
- COc1ccc(NC(=O)CSc2nc3ccsc3c(=O)n2-c2ccccc2)cc1
 : -1%, 12%
- O=C(Nc1nnc(S(=O)(=O)N2CCc3ccccc32)s1)c1ccccc1
 : -15%, 6%
- CN(C)c1ccc(SSc2ccc(N(C)C)cc2)cc1
 : 5%, -16%
- O=S(=O)(c1ccc(-c2csc(Nc3ccc(F)cc3)n2)cc1)N1CCOCC1
 : -18%, -17%
- COc1ccc(CNC(=O)C(=O)NCC(c2cccs2)S(=O)(=O)c2ccc(F)cc2)cc1 (centres undefined)
 : -11%, -9%

Continuation.
Order of values: 2A firefly, 2A Renilla
- CCOCCCn1c(=N)c(C(=O)NC2CCCC2)cc2c(=O)n3cccc(C)c3nc21
 : -18%, -7%
- COc1cccc(-c2nc3c(c(SCc4ccccc4Cl)n2)Cc2c(CO)cnc(C)c2O3)c1
 : -12%, 17%
- O=C(CCSCc1cnn(-c2ccccc2)c1-n1cccc1)NCc1ccccc1F
 : -24%, 17%
- CC(=O)Oc1cccc2cc(-c3nc(-c4ccc(Cl)cc4)no3)c(=O)oc12
 : 0%, 8%
- CCOC(=O)Cn1c(=O)c2c3c(sc2n(CCCN(C)C)c1=O)CCC(C)C3 (centres undefined)
 : -6%, -12%
- CCOC(=O)C1CCN(c2ncnc3c2nnn3C)CC1
 : 18%, 13%
- Cc1cccc(C(=O)Nc2ccc3nc(SCC(=O)N4CCOCC4)sc3c2)c1
 : ?, ?
- CCn1nnc2cc(C(=O)Nc3ccc(Br)cc3F)ccc21
 : 154%[activator], 3%
- CSc1ccc(CNC(=O)c2cccc(-c3ccc(S(=O)(=O)N4CCCCC4)cc3)c2)cc1
 : 19%, 20%
- O=C(Nc1ccc(S(=O)(=O)N2CCCCC2c2cccnc2)cc1)c1ccc(F)cc1 (centres undefined)
 : ?, ?
- Cc1ccccc1-c1nc(S(=O)(=O)c2ccc3c(c2)OCCO3)c(NCCN2CCOCC2)o1
 : 53%[activator], 253%[activator]
- Clc1ccc(-c2nc(CSc3nncc4ccccc34)no2)cc1
 : 36%[activator], -16%
- COc1cc(CN(C(=O)COc2ccc(Cl)cc2)c2ccccn2)cc(OC)c1OC
 : 48%[activator], ?
- CCOc1ccc(N(CC)S(=O)(=O)N2CCCC(C(=O)NCc3ccc(SC)cc3)C2)cc1 (centres undefined)
 : ?, ?
- COC(=O)c1sc(NC(=O)C2c3ccccc3Oc3ccccc32)c(C#N)c1C
 : ?, ?
- CCCNC(=O)C(C)Sc1nc(CCC)cc(=O)[nH]1 (centres undefined)
 : 2%, -4%
- COc1ccc(-c2ccc(CCC(=O)O)n2CC(=O)Nc2cccc(C(F)(F)F)c2)cc1
 : -11%, -13%
- CCNc1ccc(-c2nc(-c3ccncc3)no2)cc1[N+](=O)[O-]
 : 12%, ?
- CC(C)NC(=O)COC(=O)c1csc(NCc2ccccc2)n1
 : 7%, 6%
- Cc1ccc(CNC(=O)c2ccc3c(O)c(S(=O)(=O)c4ccccc4)c(=O)[nH]c3c2)cc1
 : 9%, 28%
- O=C1c2ccccc2NC(c2cccc(Br)c2)N1CCCN1CCOCC1 (centres undefined)
 : -4%, -2%
- Cc1ccc(N(Cc2cccs2)C(=O)c2ccc(Br)o2)cc1
 : 7%, 10%
- CCCOC(=O)C(C#N)c1nc2ccccc2nc1Cl (centres undefined)
 : 24%, 7%
- COc1ccccc1CNC(=O)C1CCC(CNS(=O)(=O)c2ccc3c(c2)CCCC(=O)N3)CC1 (centres undefined)
 : -4%, -3%
- CC(NC(=O)C1(c2cccs2)CCOCC1)c1ccccc1 (centres undefined)
 : -1%, 0%
- CC1=C(NC(=O)c2ccc(Cl)cc2)C(c2c[nH]c3ccccc23)n2ncnc2N1 (centres undefined)
 : -13%, 4%
- N#Cc1cc2c(nc1N1CCN(C(C(=O)O)c3c[nH]c4ccc(Cl)cc34)CC1)CCCC2 (centres undefined)
 : -12%, -14%
- O=C(CCC(=O)c1ccc(Cl)cc1)OCC(=O)c1ccc([N+](=O)[O-])cc1
 : -16%, -14%
- CC(NC(=O)CC1C=CCC1)c1ccc(Cl)c(Cl)c1 (centres undefined)
 : -14%, 8%
- Cc1ccc2nc(N3CCN(c4cccc(C)c4C)CC3)c3nncn3c2c1
 : -2%, -8%
- Cc1c(CNC2CCCCC2)c(C(=O)O)c(C)n1Cc1cccc(Cl)c1
 : -9%, 34%[activator]
- CCCCS(=O)(=O)c1oc(-c2cccs2)nc1S(=O)(=O)c1ccccc1
 : -2%, -6%
- Cn1c(=O)c2c(nc(N3CCOCC3)n2CC(O)COc2ccc(Cl)cc2)n(C)c1=O (centres undefined)
 : 7%, 5%
- Cc1ccc(C)c(OCC(=O)Nc2sc3c(c2C#N)CCCC3)c1C
 : -11%, -17%
- O=C1CCSc2ccc(S(=O)(=O)Nc3cccc(C(F)(F)F)c3)cc2N1
 : 22%, 395%[activator]
- Cc1nn(-c2ccccc2)c2sc(C(=O)Nc3ccc(Cl)cc3Cl)cc12
 : 4%, 28%
- CCCOc1ccc(C(=O)Nc2cccc(NC(=O)c3ccc(Cl)cc3Cl)c2)cc1
 : 37%[activator], -7%
- CC(NC(=O)c1n[nH]c(=O)c2ccccc12)c1cccc2ccccc12 (centres undefined)
 : -24%, -20%
- CCOC(=O)c1c(C)n(-c2ccccc2)c2ccc(OC(=O)c3cccc(OC)c3OC)cc12
 : -13%, -3%
- Cc1cc(NS(=O)(=O)c2ccc(NC(=O)c3cc4ccccc4o3)cc2)nc(C)n1
 : 0%, 105%[activator]
- CCn1cnc2c1c(=O)n(CC(=O)NCC(C)(C)N1CCOCC1)c(=O)n2Cc1ccccc1
 : -8%, -11%
- COc1cc(C2CC(=O)Nc3nc(-c4ccccc4)[nH]c(=O)c32)ccc1OCc1ccc(F)cc1 (centres undefined)
 : -12%, -16%
- Cc1c(Cl)cccc1NC(=S)NCCSc1ccc(Cl)cc1
 : 13%, 153%[activator]
- Cc1cc(OCc2nnc(SCc3cc(=O)c4cc(C(N)=O)ccc4[nH]3)n2C)cc(C)c1Cl
 : -13%, -10%
- C=CCOc1ccc2c(=O)c(Oc3cccc(C)c3)c(C(F)(F)F)oc2c1
 : 4%, 25%
- COc1ccc(-c2nc(CSCC(=O)N3CCc4ccccc43)co2)cc1
 : 0%, 2%
- COc1ccc(CCNC(=O)CCCn2c(=O)c3cccn3c3ccccc32)cc1OC
 : -3%, 38%[activator]
- CCOC(=O)C(=O)Nc1ccccc1OC
 : 36%[activator], 24%
- CCOC(=O)c1c(NC(=O)c2nc(S(C)(=O)=O)ncc2Cl)sc(C(C)=O)c1C
 : -10%, 1%
- CCc1nc(C)ccc1O
 : 4%, 7%

The results go on:
Order of values: 2A firefly, 2A Renilla
- CCC1(c2ccc(NC(=O)c3cc(OC)c(OC)c(OC)c3)cc2)CCC(=O)NC1=O (centres undefined)
 : 24%, 27%
- Cc1[nH]c(=O)c(C#N)cc1-c1ccncc1
 : -12%, -5%
- CCCCC(Sc1nc2cc3c(cc2c(=O)n1CCCC(=O)NCc1ccc2c(c1)OCO2)OCO3)C(=O)OCC (centres undefined)
 : 10%, 5%
- COc1cccc2c1Oc1ncccc1N(C(=O)Nc1ccc(F)c(Cl)c1)C2
 : -3%, -6%
- CCN1CCCC1CNC(=O)c1nc(-c2cccc3[nH]ccc23)no1 (centres undefined)
 : -5%, 0%
- Cc1ccc(NC(=O)C2(C#N)CCCC2)cc1
 : 0%, 7%
- Cc1nn(C(C)C(=O)Nc2ccccc2C(F)(F)F)c(=O)c2c1sc1ccccc12 (centres undefined)
 : -22%, 92%[activator]
- CCOc1c(Br)cc(C(=O)Nc2nnc(C3CC3)s2)cc1OC
 : 10%, 0%
- Cn1c(SCc2nc(-c3ccc(C(F)(F)F)cc3)no2)nc2ccsc2c1=O
 : 22µM*, 18µM*
- CC(NC(=O)Nc1ccc2c(c1)OCCO2)c1ccc(Cl)s1 (centres undefined)
 : 54%[activator], 30%[activator]
- CCc1ccc(CNC(=O)c2ccc(NC(=O)N3CCCCc4ccccc43)cc2)cc1
 : -1%, 4%
- Cc1ccc(C(CNC(=O)c2cc(=O)c3cc(Cl)ccc3o2)N2CCC(C)CC2)o1 (centres undefined)
 : -7%, -12%
- CCN1CCN(c2ncc(C(=O)OC)c3ccccc23)CC1
 : -5%, -11%
- Cc1ccc(CNC(C)CN2CCCCC2)cc1 (centres undefined)
 : 19%, -3%
- CCOc1ccccc1NC(=O)Cn1cnc2onc(-c3ccc(F)cc3)c2c1=O
 : 2%, 6%
- CC(CC(=O)Nc1ccc(F)cc1)(C(=O)O)c1ccccc1 (centres undefined)
 : -9%, -1%
- CCCNC(=O)C1CCCN(Cc2cccc(C(F)(F)F)c2)C1 (centres undefined)
 : -9%, -4%
- CC(C)c1ccc(OCC(=O)Nc2ccc3oc(=O)ccc3c2)cc1
 : 11%, -7%
- CCCCNC(=O)CSCc1nc(-c2ccc(OC)c(OC)c2)oc1C
 : 21%, 17%
- CCCCNC(=O)NS(=O)(=O)c1ccc(C)cc1
 : -11%[11.5 µM], 35%[activator]
- CCOc1ccc(NC(=O)CSc2nccn2-c2cccc(C)c2C)cc1
 : -22%, 10%
- Cc1cc2nc(-c3ccc(Br)cc3)cc(C(F)(F)F)n2n1
 : -13%, -2%
- O=c1[nH]nc(SCc2nc(-c3cccc(C(F)(F)F)c3)no2)n2nc(-c3ccco3)cc12
 : -5%, -6%
- CN(CC(=O)NC1(C#N)CCCCC1)c1cccc(C#N)c1
 : 16%, 19%
- CCCNC(=O)Cn1c(=O)c2cccn2c2cccnc21
 : 21%, -18%
- Nc1c(-c2nc3ccccc3[nH]2)c2ccccn2c1C(=O)c1ccccc1
 : 78%[activator], 99%[activator]
- COc1cc(Cl)c(S(=O)(=O)N2CCN(c3c(C)cccc3C)CC2)cc1Cl
 : -16%, 8%
- CC(=O)N1CCN(C(=O)c2ccc3c(ccn3C)c2)CC1
 : 6%, -10%
- CN(Cc1ccccc1)S(=O)(=O)c1cn(C)c(=O)n(C)c1=O
 : -9%, -6%

Compound activity from PubChem BioAssay.

The list is partial. The share of hits here may be higher or lower than overall.
